# Screens deposited in PubChem by Broad Institute.
# Env fusion inh – blocks HIV Env-driven cell-cell fusion; inhibition, % at 12.3 µM; hit rate 1.1% among 360,000; HeLa-JRFL Env/CEM21 cell fusion, luciferase;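 active means mean replicate inhibition score of at least 50 and every replicate individually at or above 50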;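 further: 0% = plate neutral controls and 100% = maraviroc near 300 nM; one replicate is shown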
# Yeast UUG start – yeast start codon fidelity modulation. hit rate 0.13% among 350,000. activity score, % at 18.7 µM. S. cerevisiae UUG-firefly luciferase reporter, luminescence/redox ratio;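 active means replicate mean at a twofold rise or more, about +100% in these data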;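 further: firefly luciferase made from a UUG start codon reports start codon fidelity; reporter light over untreated wells divided by growth signal over untreated wells; some hits fall short of that in this replicate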
# The depositor's hits bear a star; [ ] = another dose, or the depositor's remark.
Yeast UUG start	Env fusion inh	compound
-2	-5[16.7 µM]	CN(C)CC(=O)N[C@H]1CC[C@H](CCNC(=O)C2CCCCC2)O[C@@H]1CO
-4	-12[16.7 µM]	C[C@@H]1CCCCO[C@@H](CN(C)Cc2ccccc2)[C@H](C)CN([C@@H](C)CO)C(=O)c2cc(NC(=O)Nc3ccc4c(c3)OCO4)ccc2O1
-8	0[16.7 µM]	C[C@H]1CN([C@@H](C)CO)C(=O)Cc2cc(NC(=O)CCN3CCOCC3)ccc2O[C@H]1CN(C)Cc1ccc2c(c1)OCO2
-6	-1[16.7 µM]	O=C(C[C@H]1C[C@H]2c3cc(NC(=O)NC4CCCC4)ccc3O[C@H]2[C@@H](CO)O1)NC1CCCC1
-1	-6[16.7 µM]	C[C@@H]1CN([C@H](C)CO)C(=O)Cc2cc(NC(=O)NC3CCCCC3)ccc2O[C@@H]1CN(C)C(=O)NC1CCCCC1
3	-18[16.7 µM]	O=C(C[C@H]1CC[C@@H]2[C@H](COC[C@@H](O)CN2C(=O)Nc2cccc(Cl)c2)O1)NCCCN1CCOCC1
9	-2[16.7 µM]	CCCC#Cc1cnc2c(c1)C(=O)N([C@@H](C)CO)C[C@H](C)[C@@H](CN(C)C(=O)Cc1cccnc1)O2
-17	-5[16.7 µM]	COCC(=O)Nc1ccc2c(c1)[C@@H]1C[C@H](CC(=O)NCc3ccccn3)O[C@H](CO)[C@@H]1O2
12	18[16.7 µM]	C[C@@H]1CN([C@@H](C)CO)S(=O)(=O)c2ccc(C#Cc3ccc(F)cc3)cc2O[C@H]1CN(C)C(=O)CN(C)C
15	9[16.7 µM]	COc1ccc(S(=O)(=O)Nc2ccc3c(c2)CC(=O)N([C@@H](C)CO)C[C@@H](C)[C@H](CN(C)C(=O)Nc2ccc4c(c2)OCO4)O3)cc1
-2	14[16.7 µM]	O=C(Cc1ccncc1)NCC[C@@H]1CC[C@H](NC(=O)Nc2cccc(F)c2)[C@@H](CO)O1
-3	6[16.7 µM]	O=C(C[C@@H]1CC[C@@H]2[C@H](COC[C@@H](O)CN2S(=O)(=O)c2ccccc2)O1)NCCN1CCCCC1

# Already shown: an excerpt of the list.
Yeast UUG start	Env fusion inh	compound
-2	-5[16.7 µM]	CN(C)CC(=O)N[C@H]1CC[C@H](CCNC(=O)C2CCCCC2)O[C@@H]1CO
-4	-12[16.7 µM]	C[C@@H]1CCCCO[C@@H](CN(C)Cc2ccccc2)[C@H](C)CN([C@@H](C)CO)C(=O)c2cc(NC(=O)Nc3ccc4c(c3)OCO4)ccc2O1
-8	0[16.7 µM]	C[C@H]1CN([C@@H](C)CO)C(=O)Cc2cc(NC(=O)CCN3CCOCC3)ccc2O[C@H]1CN(C)Cc1ccc2c(c1)OCO2

# More compounds follow.
Yeast UUG start	Env fusion inh	compound
-2	-3[16.7 µM]	C[C@H](CO)N1C[C@H](C)[C@H](CN(C)S(=O)(=O)c2ccc(F)cc2)Oc2c(NS(=O)(=O)c3cccs3)cccc2C1=O
-4	-6[16.7 µM]	C[C@@H]1CN([C@@H](C)CO)C(=O)c2cc(C#Cc3ccccn3)cnc2O[C@H]1CN(C)Cc1cncnc1
10	29[16.7 µM]	COc1ccc(NC(=O)N(C)C[C@@H]2Oc3c(NC(=O)Nc4ccc(C(F)(F)F)cc4)cccc3C(=O)N([C@H](C)CO)C[C@H]2C)cc1
30	5[16.7 µM]	COc1ccc(S(=O)(=O)Nc2ccc3c(c2)CC(=O)N([C@H](C)CO)C[C@@H](C)[C@@H](CN(C)S(=O)(=O)c2cccs2)O3)cc1
-8	8[16.7 µM]	COc1ccc(S(=O)(=O)N(C)C[C@@H]2Oc3cc(-c4cccc(F)c4)ccc3S(=O)(=O)N([C@@H](C)CO)C[C@@H]2C)cc1
-9	10[16.7 µM]	O=C(C[C@H]1C=C[C@H](NC(=O)Nc2ccc3c(c2)OCO3)[C@@H](CO)O1)NCc1ccc(Cl)cc1
25	7[16.7 µM]	C[C@@H]1CN([C@@H](C)CO)C(=O)Cc2cc(NS(=O)(=O)c3ccccc3)ccc2O[C@@H]1CN(C)S(=O)(=O)c1cccs1
11	-11[16.7 µM]	C[C@H]1CN([C@@H](C)CO)S(=O)(=O)c2ccc(C#CC(C)(C)O)cc2O[C@@H]1CN(C)CC1CC1
-9	14[16.7 µM]	O=C(C[C@H]1CC[C@H](NC(=O)C2CC2)[C@H](CO)O1)NC1CCC1
11	-9[16.7 µM]	COCC#Cc1cnc2c(c1)C(=O)N([C@@H](C)CO)C[C@H](C)[C@@H](CN(C)C(=O)Nc1ccc(OC)cc1)O2
9	-2[16.7 µM]	COc1ccc(S(=O)(=O)Nc2ccc3c(c2)C(=O)N([C@H](C)CO)C[C@@H](C)[C@H](CN(C)C(=O)Nc2ccc(F)cc2)O3)cc1
-1	9[16.7 µM]	CC(=O)N(C)C[C@@H]1Oc2ncc(C#Cc3ccccc3)cc2C(=O)N([C@@H](C)CO)C[C@@H]1C

# Other structures follow:
Yeast UUG start	Env fusion inh	compound
3	-4[16.7 µM]	C[C@@H]1CN([C@@H](C)CO)S(=O)(=O)c2ccc(C#C[C@@H](C)O)cc2O[C@H]1CN(C)Cc1cncnc1
0	-23[16.7 µM]	C[C@H](CO)N1C[C@H](C)[C@H](CN(C)Cc2ccc(C(=O)O)cc2)Oc2ncc(-c3ccc(F)cc3)cc2C1=O
8	-13[16.7 µM]	C[C@H](CO)N1C[C@H](C)[C@@H](CN(C)C(=O)Nc2ccc(F)cc2)Oc2ccc(NC(=O)Nc3ccc(F)cc3)cc2C1=O
-9	-10[16.7 µM]	CO[C@@H]1CN(C)C(=O)c2cc(NC(=O)c3cc(C)on3)ccc2OC[C@@H](C)N(C)C[C@@H]1C
15	2[16.7 µM]	C[C@H]1CCCCO[C@H](CN(C)S(=O)(=O)c2ccccc2)[C@@H](C)CN([C@@H](C)CO)C(=O)c2cc(NC(=O)CCCN(C)C)ccc2O1
-30	14[16.7 µM]	COc1ccccc1S(=O)(=O)N[C@H]1CC[C@H](CC(=O)N2CCCCC2)O[C@@H]1CO
-5	-4[16.7 µM]	CCCC#Cc1cnc2c(c1)C(=O)N([C@H](C)CO)C[C@@H](C)[C@@H](CN(C)C(=O)Cc1cccnc1)O2
-6	-19[16.7 µM]	COc1ccc(S(=O)(=O)Nc2ccc3c(c2)C(=O)N([C@@H](C)CO)C[C@@H](C)[C@@H](CN(C)Cc2ccc(C(=O)Nc4ccccc4N)cc2)O3)cc1
-2	7[16.7 µM]	C[C@H]1CN([C@@H](C)CO)C(=O)Cc2cc(NS(=O)(=O)c3ccc(F)cc3)ccc2O[C@@H]1CN(C)Cc1ccncc1
1	2[16.7 µM]	COc1cccc(-c2cn(CC[C@H]3CC[C@@H](NC(=O)CN(C)C)[C@H](CO)O3)nn2)c1
-7	28[16.7 µM]	CCCC[C@H]1OB(O)C[C@H]2C1=C(COc1ccccc1)C[C@H]1C(=O)N(Cc3ccccc3)C(=O)[C@H]12
-5	-5[16.7 µM]	C[C@H]1CN([C@@H](C)CO)C(=O)c2cc(-c3ccc(C#N)cc3)cnc2O[C@@H]1CN(C)C(=O)c1ccccc1

# Next part.
Yeast UUG start	Env fusion inh	compound
-2	16[16.7 µM]	C[C@H](CO)N1C[C@H](C)[C@H](CN(C)Cc2ccc(Cl)c(Cl)c2)Oc2c(NC(=O)c3cnccn3)cccc2C1=O
13	4[16.7 µM]	C[C@H]1CN([C@@H](C)CO)C(=O)c2cc(-c3ccc(F)cc3)cnc2O[C@H]1CN(C)CC1CCOCC1
-7	-8[16.7 µM]	Cc1ccc(S(=O)(=O)N(C)C[C@@H]2OCCCC[C@@H](C)Oc3ccc(NC(=O)Nc4cccc5ccccc45)cc3C(=O)N([C@@H](C)CO)C[C@@H]2C)cc1
-11	-4[16.7 µM]	CN(C)c1ccc2c(c1)[C@H]1C[C@@H](CC(=O)NCc3ccc(Cl)cc3)O[C@@H](CO)[C@H]1O2
6	-3[16.7 µM]	COc1ccc(S(=O)(=O)Nc2ccc3c(c2)C(=O)N([C@H](C)CO)C[C@H](C)[C@H](CN(C)S(=O)(=O)c2ccc(OC)cc2)O3)cc1
9	20[16.7 µM]	C[C@H]1CN([C@@H](C)CO)C(=O)Cc2cc(NC(=O)Nc3ccc(F)cc3)ccc2O[C@H]1CN(C)Cc1ccc(Cl)c(Cl)c1
-1	10[16.7 µM]	C[C@H](CO)N1C[C@H](C)[C@H](CN(C)S(=O)(=O)c2cn(C)cn2)Oc2ccc(NS(=O)(=O)c3ccc(F)cc3)cc2CC1=O
3	-6[16.7 µM]	C[C@H](CO)N1C[C@H](C)[C@@H](CN(C)C(=O)Nc2ccccc2)OCCCC[C@H](C)Oc2ccc(NC(=O)CCC(F)(F)F)cc2C1=O
20	-25[16.7 µM]	CCCC#Cc1ccc2c(c1)O[C@H](CN(C)C(=O)NCCC)[C@H](C)CN([C@H](C)CO)S2(=O)=O
3	0[16.7 µM]	Cc1noc(C)c1NC(=O)Nc1ccc2c(c1)C(=O)N([C@H](C)CO)C[C@@H](C)[C@H](CN(C)S(=O)(=O)c1ccccc1)OCCCC[C@H](C)O2
2	-2[16.7 µM]	CN(C)CC(=O)Nc1ccc2c(c1)[C@@H]1C[C@H](CC(=O)NCCc3ccccc3)O[C@@H](CO)[C@@H]1O2
-8	45[16.7 µM]	CCCC#Cc1ccc2c(c1)O[C@H](CN(C)Cc1ccc3c(c1)OCO3)[C@H](C)CN([C@@H](C)CO)S2(=O)=O

# Three records drawn at random from the list so far, as already listed:
Yeast UUG start	Env fusion inh	compound
3	0[16.7 µM]	Cc1noc(C)c1NC(=O)Nc1ccc2c(c1)C(=O)N([C@H](C)CO)C[C@@H](C)[C@H](CN(C)S(=O)(=O)c1ccccc1)OCCCC[C@H](C)O2
-7	-8[16.7 µM]	Cc1ccc(S(=O)(=O)N(C)C[C@@H]2OCCCC[C@@H](C)Oc3ccc(NC(=O)Nc4cccc5ccccc45)cc3C(=O)N([C@@H](C)CO)C[C@@H]2C)cc1
2	-2[16.7 µM]	CN(C)CC(=O)Nc1ccc2c(c1)[C@@H]1C[C@H](CC(=O)NCCc3ccccc3)O[C@@H](CO)[C@@H]1O2

# Carrying on.
Yeast UUG start	Env fusion inh	compound
-1	27[16.7 µM]	C[C@@H]1CN([C@@H](C)CO)C(=O)c2cccc(NS(=O)(=O)c3ccc(Cl)cc3)c2O[C@H]1CN(C)C(=O)Nc1ccc(F)cc1
-11	-15[16.7 µM]	C[C@@H]1CN([C@@H](C)CO)C(=O)c2cc(N(C)C)ccc2O[C@H]1CN(C)Cc1ccncc1
20	22[16.7 µM]	COCCCNC(=O)[C@@]1(Cc2ccccc2CN=[N+]=[N-])N=C(c2ccc(OCCCO)cc2)O[C@H]1c1ccccc1
4	-44[16.7 µM]	COc1ccc(S(=O)(=O)N(C)C[C@@H]2OCCCC[C@H](C)Oc3ccc(NS(=O)(=O)c4ccccc4)cc3C(=O)N([C@H](C)CO)C[C@H]2C)cc1
-2	-3[16.7 µM]	C[C@H](CO)N1C[C@H](C)[C@@H](CN(C)C(=O)C2CC2)Oc2cc(C#Cc3ccccc3)ccc2S1(=O)=O
-12	-12[16.7 µM]	C[C@@H](NC(=O)C[C@@H]1CC[C@@H](NC(=O)Cc2ccccn2)[C@@H](CO)O1)c1ccccc1
-3	4[16.7 µM]	O=C(NCC[C@@H]1CC[C@@H](NS(=O)(=O)c2cccc(F)c2)[C@@H](CO)O1)C1CCCC1
2	-6[16.7 µM]	O=C(Nc1ccccc1F)N[C@@H]1C=C[C@@H](CC(=O)N2CCCCC2)O[C@H]1CO
4	8[16.7 µM]	Cc1ccc(S(=O)(=O)Nc2cccc3c2O[C@@H](CN(C)S(=O)(=O)c2ccc(F)cc2)[C@@H](C)CN([C@H](C)CO)C3=O)cc1
9	6[16.7 µM]	C[C@H]1CN([C@@H](C)CO)C(=O)c2cccc(NC(=O)C3CC3)c2O[C@@H]1CN(C)Cc1ccc(C(=O)Nc2ccccc2N)cc1
-13	10[16.7 µM]	CCC(=O)Nc1ccc2c(c1)C(=O)N(C)C[C@H](OC)[C@H](C)CN(CCC(F)(F)F)[C@@H](C)CO2
-12	9[16.7 µM]	C[C@@H]1CN([C@H](C)CO)C(=O)c2cc(C#CC(C)(C)O)cnc2O[C@@H]1CN(C)Cc1ccccn1

# Other records:
Yeast UUG start	Env fusion inh	compound
-8	10[16.7 µM]	O=C(C[C@H]1CC[C@@H](NC(=O)Nc2cc(F)ccc2F)[C@@H](CO)O1)NCCCN1CCOCC1
9	3[16.7 µM]	C[C@@H]1CN([C@H](C)CO)C(=O)c2cc(C#CCN(C)C)cnc2O[C@@H]1CN(C)C(=O)NC1CCCCC1
-5	11[16.7 µM]	C[C@@H]1CN([C@H](C)CO)C(=O)Cc2cc(NC(=O)NC3CCCCC3)ccc2O[C@@H]1CN(C)Cc1ccc(-c2ccccc2)cc1
8	-7[16.7 µM]	C[C@H]1CN([C@@H](C)CO)C(=O)c2cc(NC(=O)C3CC3)ccc2O[C@@H]1CN(C)CC1CCCCC1
10	6[16.7 µM]	COc1ccccc1CNC(=O)C[C@@H]1C=C[C@@H](NC(=O)CC2CC2)[C@H](CO)O1
14	-27[16.7 µM]	C[C@@H]1CN([C@H](C)CO)C(=O)c2cc(NS(=O)(=O)c3ccccc3)ccc2O[C@@H](C)CCCCO[C@H]1CN(C)C(=O)Nc1ccc(F)cc1
-4	1[16.7 µM]	C/C=C/c1ccc2c(c1)O[C@@H](CN(C)C(=O)c1ccncc1)[C@@H](C)CN([C@H](C)CO)S2(=O)=O
-12	16[16.7 µM]	O=C(C[C@@H]1CC[C@H]2[C@@H](COC[C@H](O)CN2C(=O)C2CCOCC2)O1)NCc1ccncc1
-8	5[16.7 µM]	COC(=O)C[C@@H]1C[C@@H]2c3cc(NS(=O)(=O)c4ccccc4)ccc3O[C@@H]2[C@H](CO)O1
3	-12[16.7 µM]	C[C@@H]1CN([C@H](C)CO)S(=O)(=O)c2ccc(C#Cc3ccncc3)cc2O[C@H]1CN(C)C(=O)C1CCC1
39	23[16.7 µM]	CC(=O)N(C)C[C@H]1Oc2ncc(C#Cc3cccnc3)cc2C(=O)N([C@H](C)CO)C[C@@H]1C

# This is a subset, so the mix of outcomes need not match the whole.
